Screening results as filed in PubChem.
rRNA inh HTS – reduced GFP signal of wild-type E. coli, primary screen, bacterial rRNA inhibitor project, GFP/RFP fluorescence, OD600, single point | E. coli WT GFP vs humanized-ribosome RFP mutants, 24 h; hits give low values; DMSO median 0, no signal -100 | GFP signal change (wild-type ribosome), % (test concentration not listed) | 350,000 tested, 1.6% active;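 active = significant combined selectivity score with lowered wild-type GFP, culture density cut under 30%, mutant RFP and density less affected; inactive = any of these conditions unmet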; also: one replicate is shown; some compounds called inactive have numbers as strong as hits
rRNA inh HTS OD600 – second read-out of rRNA inh HTS, no call of its own (marks repeat the call); OD600 change, %; measured here: OD600 growth;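 optical density of the mix in the first replicate; 0 = DMSO median and -100 = no signal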
rRNA inh HTS RFP – also measured in rRNA inh HTS; calls as there; RFP signal change, %; measured here: RFP humanized mutant strains;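 first replicate; 0 = DMSO median and -100 = no signal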
Numbers without * were called inactive; & = joins results of further samples.

rRNA inh HTS,rRNA inh HTS OD600,rRNA inh HTS RFP,canonical_smiles
-2.9,2.8,2.2,C[C@H]1CN([C@@H](C)CO)C(=O)c2c(c3ccccc3n2C)-c2ccccc2CO[C@H]1CN(C)S(=O)(=O)c1cccc(C#N)c1
10.3,-5.2,0.6,CCCCCn1c(C)c(CC(=O)Nc2ccc(Oc3cccnc3)c(C)c2)c2ccccc21
1.1,-1.6,1.3,CO[C@@H]1CN(C)C(=O)c2cc(NS(C)(=O)=O)ccc2OC[C@H](C)N(Cc2cccnc2)C[C@H]1C
0.9,1.0,-3.1,C(=C\c1ccc(C2[C@H]3CNC[C@@H]2N3Cc2cncnc2)cc1)/c1ccccc1 (some centres not stated)
-0.1,3.5,2.0,C[C@H](CO)N1C[C@H](C)[C@@H](CN(C)C(=O)Nc2ccccc2C(F)(F)F)OCc2ccccc2-c2c(n(C)c3ccccc23)C1=O
-16.1,-30.3,-6.1,C[C@@H]1CN([C@H](C)CO)C(=O)c2cccc(NC(=O)CCCCCC(=O)Nc3ccccc3N)c2O[C@H]1CN(C)CC1CCCCC1
2.2,-6.5,1.9,C[C@H](CO)N1C[C@H](C)[C@@H](CN(C)Cc2ccc(-c3ccccc3)cc2)Oc2ccc(NS(=O)(=O)c3ccc(F)cc3)cc2CC1=O
2.5,4.5,-1.5,Cc1cccc(CN(C)C[C@H]2OCc3cn(nn3)CCCC(=O)N([C@H](C)CO)C[C@@H]2C)c1
-0.3,4.3,-1.4,C[C@H](CO)N1C[C@H](C)[C@@H](CN(C)CC2CC2)Oc2c(NC(=O)CCCCCC(=O)Nc3ccccc3N)cccc2C1=O
-0.7,21.8,0.5,CC[C@H](NC(=O)[C@H]1O[C@@H](n2cnc3c(=O)[nH]c(N)nc32)[C@H](O)[C@@H]1O)c1ccccc1
2.2,14.2,0.6,O=C(C[C@H]1CC[C@@H]2NC[C@@H](O)COC[C@H]2O1)NCCN1CCCCC1
4.8,16.2,-4.1,CO[C@@H]1CC[C@H]2CCN(C)C(=O)[C@H](C)CN(C)C(=O)c3cc(C#N)ccc3OC[C@H]1O2
-1.8,11.1,-2.7,Cc1ccccc1-c1ccc([C@H]2[C@@H](CO)N3C(=O)CN(C(=O)c4cccnc4)C[C@H]23)cc1
-35.0,-72.7,10.8,C/C=C/c1ccc([C@H]2[C@@H](CO)N(CC3CCCCC3)[C@H]2CNC(C)C)cc1
1.2,4.4,-2.4,C[C@@H]1CN([C@H](C)CO)C(=O)c2cccc(NS(=O)(=O)c3ccccc3)c2O[C@@H]1CN(C)S(=O)(=O)c1ccc(F)cc1
3.2,5.6,3.7,C[C@H](CO)N1C[C@H](C)[C@H](CN(C)CC2CC2)Oc2cc(C3=CCCCC3)ccc2S1(=O)=O
20.8,9.9,4.1,COc1ccc(C(=O)N2CCC[C@@H]2C(=O)N2CCC[C@@H]2C(=O)NCc2ccccc2)cc1F
-3.9,-19.0,3.8,COc1cccc(S(=O)(=O)Nc2ccc3c(c2)C(=O)N(C)[C@H]2CC[C@H](CC(=O)Nc4cc(F)ccc4F)O[C@@H]2CO3)c1
0.7,7.8,-1.8,C[C@H]1CN(C)C(=O)c2cc(N)ccc2O[C@H]1CN(C)S(C)(=O)=O
-49.1,-71.1,-10.4,CN1c2ccc(Br)cc2[C@H]2[C@H](CCN2C(=O)Nc2cccc(F)c2)[C@H]1CO
-5.3,2.8,-0.8,CN(C)C(=O)c1ccc(-c2ccc3c(c2)[C@H]2[C@H](CCN2C(=O)c2ccccc2F)[C@@H](CO)N3)cc1
1.4,11.9,-0.1,CN(C)C(=O)C[C@@H]1CC[C@H]2[C@@H](COC[C@H](O)CN2Cc2ccc(C(F)(F)F)cc2)O1
-9.9,-20.1,4.7,COc1cccc(CNC(=O)[C@@H]2N[C@@H]3c4ccc(/C=C/c5ccccc5)c(=O)n4C[C@@H]3[C@H]2CO)c1
4.3,12.3,-1.8,C[C@@H]1CCCCO[C@@H](CN(C)C(=O)CCC(F)(F)F)[C@@H](C)CN([C@H](C)CO)C(=O)c2cc(NC(=O)CCCN(C)C)ccc2O1
1.5,-0.1,-1.1,C[C@@H]1CN([C@@H](C)CO)C(=O)CCCn2cc(nn2)CO[C@H]1CN(C)Cc1ccc2cccnc2c1
-7.7,-2.2,-3.9,C[C@H]1CCCCO[C@@H](CN(C)Cc2ccc(C(F)(F)F)cc2)[C@@H](C)CN([C@@H](C)CO)C(=O)c2cc(NC(=O)Nc3cccc4ccccc34)ccc2O1
-0.4,-2.4,-2.7,CCNC(=O)Nc1ccc2c(c1)C(=O)N(C)[C@@H]1CC[C@@H](CC(=O)NCC3CC3)O[C@@H]1CO2
3.9,2.1,-1.5,C[C@H]1CN([C@@H](C)CO)C(=O)Cc2cc(NS(=O)(=O)c3cn(C)cn3)ccc2O[C@H]1CN(C)CC1CCCCC1
-29.9,-58.5,0.3,C[C@@H]1ON(C)[C@H]2C[C@H]3c4[nH]c5c(-c6cccc(F)c6)cccc5c4CCN3C(=O)[C@@H]12
2.3,1.8,-2.0,CCCNC(=O)Nc1ccc2c(c1)C(=O)N(C)C[C@@H](OC)[C@@H](C)CN(CC1CCCC1)[C@H](C)CO2

Whole records, quoted from the list:
O=C(C[C@H]1CC[C@@H]2NC[C@@H](O)COC[C@H]2O1)NCCN1CCCCC1 in the list: rRNA inh HTS: 2.2; rRNA inh HTS OD600: 14.2; rRNA inh HTS RFP: 0.6
COc1cccc(CNC(=O)[C@@H]2N[C@@H]3c4ccc(/C=C/c5ccccc5)c(=O)n4C[C@@H]3[C@H]2CO)c1 in the list: rRNA inh HTS: -9.9; rRNA inh HTS OD600: -20.1; rRNA inh HTS RFP: 4.7

New compounds follow.
rRNA inh HTS,rRNA inh HTS OD600,rRNA inh HTS RFP,canonical_smiles
-2.3,-9.5,-3.0,C[C@@H]1CN([C@@H](C)CO)C(=O)c2cccc(NC(=O)Nc3ccccc3)c2O[C@@H]1CN(C)S(=O)(=O)c1cccs1
3.2,13.3,7.8,C[C@@H]1CN([C@@H](C)CO)C(=O)c2cc(NC(=O)Cc3ccccc3)ccc2O[C@@H](C)CCCCO[C@@H]1CN(C)S(=O)(=O)c1ccc(F)cc1
0.7,-1.6,0.2,Cc1noc(C)c1NC(=O)N(C)C[C@@H]1OCc2cn(nn2)CCCC(=O)N([C@H](C)CO)C[C@@H]1C
-3.5,-2.3,6.2,C[C@H](CO)N1C[C@H](C)[C@H](CN(C)C(=O)Nc2ccc(F)cc2)Oc2ncc(C#Cc3cccc(F)c3)cc2C1=O
9.9,2.4,-0.1,CCCC#Cc1cnc2c(c1)C(=O)N([C@@H](C)CO)C[C@@H](C)[C@@H](CN(C)C(=O)C1CCCCC1)O2
16.6,7.5,-4.5,COCCN1C(=O)CSCC1(C)C(=O)NC(C)C (configuration not stated)
0.9,6.7,6.0,COc1ccc(CN2CC3(CCN(Cc4ccccn4)CC3)c3c(n(C)c4cc(OC)ccc34)[C@H]2CO)cc1
-12.4,-7.2,-1.3,CC(=O)C1=C(C)N(Cc2ccc(Br)cc2)C(=S)NC1c1ccc(F)cc1 (configuration not stated)
-2.1,-8.8,3.8,C[C@H]1CN([C@@H](C)CO)S(=O)(=O)c2ccc(/C=C/c3ccccc3)cc2O[C@H]1CN(C)C(=O)CN1CCOCC1
-1.5,-8.2,0.3,C[C@H]1CN([C@@H](C)CO)C(=O)Cc2cc(NS(=O)(=O)c3cccs3)ccc2O[C@@H]1CN(C)S(=O)(=O)c1cccs1
-1.2,0.7,2.4,C[C@@H]1CCCCO[C@H](CN(C)C(=O)Nc2ccccc2)[C@@H](C)CN([C@H](C)CO)C(=O)c2cc(NS(=O)(=O)c3ccc(F)cc3)ccc2O1
0.1,-5.0,-1.7,C[C@@H]1CN([C@@H](C)CO)C(=O)c2cc(NC(=O)Nc3ccc(C(F)(F)F)cc3)ccc2O[C@@H](C)CCCCO[C@H]1CN(C)Cc1ccc(C(F)(F)F)cc1
2.5,3.3,-2.4,CCCNC(=O)Nc1ccc2c(c1)C(=O)N(C)[C@H]1CC[C@@H](CC(=O)O)O[C@H]1CO2
-1.4,-12.5,-0.2,CCC(=O)N(C)C[C@@H]1Oc2cc(C3=CCCCC3)ccc2S(=O)(=O)N([C@H](C)CO)C[C@H]1C
-3.5,-4.3,-1.8,C[C@H]1CN([C@@H](C)CO)C(=O)c2cc(-c3ccc(F)cc3)cnc2O[C@@H]1CN(C)C(=O)Nc1ccccc1F
-0.9,-9.5,1.2,CCCNC(=O)N(C)C[C@H]1Oc2cc(C#CC(C)C)ccc2S(=O)(=O)N([C@@H](C)CO)C[C@@H]1C
-0.6,-5.9,-1.2,CN1C(=O)c2cc(NC(=O)NC3CCCC3)ccc2OC[C@@H]2O[C@H](CC(=O)NC3CCC3)CC[C@@H]21
-4.8,4.4,2.0,C[C@H]1CCCCO[C@@H](CN(C)S(=O)(=O)c2cn(C)cn2)[C@@H](C)CN([C@@H](C)CO)C(=O)c2cc(NC(=O)Nc3ccc(C(F)(F)F)cc3)ccc2O1
-4.6,-2.9,5.2,C[C@H](CO)N1C[C@H](C)[C@@H](CN(C)Cc2ccc(Cl)c(Cl)c2)Oc2ccc(NS(=O)(=O)c3ccc(F)cc3)cc2CC1=O
0.3,10.6,1.1,CCC(=O)N1C[C@H](C)[C@H](OC)CN(C)C(=O)c2ccc(NC(=O)CC(F)(F)F)cc2OC[C@@H]1C
-2.1,-12.7,-0.6,CC(=O)N(C)C[C@@H]1Oc2cc(C3=CCCCC3)ccc2S(=O)(=O)N([C@H](C)CO)C[C@@H]1C
-0.7,-6.2,-4.4,COCCNC(=O)C[C@@H]1C[C@H]2c3cc(NC(=O)Nc4ccccc4F)ccc3O[C@H]2[C@H](CO)O1
1.4,23.6,-2.7,COc1cccc(-c2cnc3c(c2)C(=O)N([C@@H](C)CO)C[C@@H](C)[C@H](CN(C)CC2CCCC2)O3)c1
8.3,-6.6,0.1,C[C@H]1CN([C@@H](C)CO)C(=O)c2ccccc2-c2ccccc2CO[C@@H]1CN(C)S(=O)(=O)c1ccccc1
-2.4,-1.2,-0.1,C[C@@H]1CN([C@H](C)CO)C(=O)c2cc(NC(=O)c3ccccc3)ccc2O[C@@H](C)CCCCO[C@H]1CN(C)S(C)(=O)=O
-3.6,-11.8,4.0,COc1ccc(NC(=O)Nc2ccc3c(c2)C(=O)N([C@@H](C)CO)C[C@@H](C)[C@H](CN(C)S(=O)(=O)c2ccc(F)cc2)O3)cc1
-9.0,-22.8,2.1,Cc1ccc(-c2ccc([C@H]3[C@@H](CO)N4CCCCN(Cc5ccccn5)C[C@H]34)cc2)cc1
0.0&0.0,-1.3&3.0,5.0&-1.0,CN1C(=O)c2cc(NC(=O)c3cccc(F)c3)ccc2OC[C@@H]2O[C@@H](CC(=O)NC3CCC3)CC[C@H]21
-0.1,1.5,-0.8,COc1ccc(CN2C(=O)CSCC2(C)C(=O)Nc2c(C)cccc2C)cc1 (configuration not stated)
1.5,11.2,-0.3,CNC(=O)C[C@H]1CC[C@H]2[C@@H](COc3ccc(NC(=O)c4ccc5c(c4)OCO5)cc3C(=O)N2C)O1

Not a retest: entries from further up.
rRNA inh HTS,rRNA inh HTS OD600,rRNA inh HTS RFP,canonical_smiles
-5.3,2.8,-0.8,CN(C)C(=O)c1ccc(-c2ccc3c(c2)[C@H]2[C@H](CCN2C(=O)c2ccccc2F)[C@@H](CO)N3)cc1
1.4,11.9,-0.1,CN(C)C(=O)C[C@@H]1CC[C@H]2[C@@H](COC[C@H](O)CN2Cc2ccc(C(F)(F)F)cc2)O1

Next part:
rRNA inh HTS,rRNA inh HTS OD600,rRNA inh HTS RFP,canonical_smiles
-1.2,0.6,-1.2,COc1cccc(NC(=O)N(C)C[C@H]2Oc3cc(C#Cc4ccccc4)ccc3S(=O)(=O)N([C@@H](C)CO)C[C@H]2C)c1
3.5,9.8,1.8,C[C@H](CO)N1C[C@H](C)[C@@H](CN(C)C(=O)Nc2ccccc2)Oc2ccc(NC(=O)Nc3ccc4c(c3)OCO4)cc2CC1=O
2.5,4.7,0.9,COc1cccc(CNC(=O)[C@H]2[C@H](CO)[C@H]3Cn4c(ccc(C5=CCCC5)c4=O)[C@@H]2N3)c1
0.3,-5.7,-2.2,C[C@@H]1CN([C@@H](C)CO)C(=O)c2cccc(NC(=O)c3cnccn3)c2O[C@H]1CN(C)S(=O)(=O)c1ccccc1
0.2,10.4,-3.7,C[C@@H]1CCCCO[C@@H](CN(C)C(=O)CCCN(C)C)[C@H](C)CN([C@@H](C)CO)C(=O)c2cc(N(C)C)ccc2O1
0.1,3.2,-0.7,C[C@@H]1CN([C@@H](C)CO)C(=O)Cc2cc(NC(=O)CCCCCC(=O)Nc3ccccc3N)ccc2O[C@H]1CN(C)S(=O)(=O)c1cccs1
-12.3,-10.6,7.6,O=S(=O)(c1ccccc1F)N1CC[C@@H]2[C@H]1c1cc(-c3cccc(F)c3)ccc1N[C@@H]2CO
-3.5,2.2,-1.4,C[C@@H]1CCCCO[C@H](CN(C)C(=O)Cc2ccccc2)[C@H](C)CN([C@@H](C)CO)C(=O)c2cc(NS(C)(=O)=O)ccc2O1
-1.0,3.4,-1.6,C[C@@H]1CN([C@@H](C)CO)C(=O)c2ccccc2-c2ccccc2CO[C@@H]1CN(C)C(=O)[C@H](Cc1ccccc1)N(C)C
-6.5,-1.3,7.0,C[C@H](CO)N1C[C@H](C)[C@H](CN(C)Cc2ccc3c(c2)OCO3)OCCCC[C@H](C)Oc2ccc(NC(=O)Cc3ccccc3)cc2C1=O
10.1,14.8,-5.0,N#Cc1cccc(-c2ccc3c(c2)[C@@H]2[C@@H](CCN2Cc2cncnc2)[C@@H](CO)N3)c1
-1.9,0.4,1.7,C[C@@H]1CCCCO[C@H](CN(C)Cc2ccccc2)[C@H](C)CN([C@H](C)CO)C(=O)c2cc(NC(=O)c3ccccc3)ccc2O1

These rows are one share of the data; count on the stated rates, not on these rows.
